StopGo FLuc: lowers the firefly signal of an FMDV 2A StopGo reporter; HEK cells with a luciferase reporter of 2A StopGo recoding; Potency, µM (titrated, usually from 57.5 µM), for the others: at the highest dose signal change, negative = less light; 120,000 tested, 0.23% active; AID 1745856; active = well fitted falling curve with a large enough effect; inconclusive = small, poorly fitted or top-dose-only effect; inactive = no such curve, though single readings can be large or run the other way; note: nearly all actives have a fitted effect of over 60% in size; overnight with compound
2A Renilla: FMDV 2A StopGo reporter, Renilla signal; Potency, µM (series often up to 57.5 µM), inactives show at the highest dose signal change, negative = less light; 120,000 tested, 0.32% active; HEK cells with a luciferase reporter of 2A StopGo recoding; AID 1745857; active means well fitted falling curve with a large enough effect; inconclusive means small, poorly fitted or top-dose-only effect; inactive means no such curve, though single readings can be large or run the other way; note: nearly all actives have a fitted effect of over 55% in size; overnight with compound
* hit, by the source's call; & = joins results of further samples; [ ] = another dose, or the depositor's remark. % is set by controls: 0 for no effect and ±100 for the full control effect; potency is the fitted concentration of half-maximal effect.

Results for COc1ccc(C(CNC(=O)CN2CCN(C(=O)C3CC3)CC2)c2c[nH]c3ccccc23)cc1 (stereo not given) ?
StopGo FLuc: 12%; 2A Renilla: 3%

What do the screens show for `CCc1ccc(C2c3c(oc4ccc(F)cc4c3=O)C(=O)N2CCc2ccc(OC)cc2)cc1` (stereo not given)?
StopGo FLuc: -16%; 2A Renilla: -4%

Results for COc1ccc(C(C)=O)cc1COC(=O)c1ccccc1Br ?
StopGo FLuc: 15%; 2A Renilla: 24%

Results for O=C(Nc1ccc(F)c([N+](=O)[O-])c1)c1cccn(Cc2ccccc2)c1=O ?
StopGo FLuc: 16%; 2A Renilla: -18%

What do the screens show for `O=C(Nc1ccc(F)c(F)c1)c1nc2ccccc2nc1N1CCCCC1`?
StopGo FLuc: -2%; 2A Renilla: -3%

Results for Cc1ccccc1NC(=O)CCn1nc(-c2ccccc2)c2ccccc2c1=O ?
StopGo FLuc: 19%; 2A Renilla: 3%

What do the screens show for `CC(C)(C)c1ccc(Oc2nc3ccccn3c(=O)c2/C=C(\C#N)c2nc3ccccc3[nH]2)cc1`?
StopGo FLuc: -6%; 2A Renilla: 3%

Results for COc1ccc(NCC(=O)NNC(=O)C(Cc2ccccc2)NC(=O)c2cccs2)cc1 (stereo not given) ?
StopGo FLuc: 9%; 2A Renilla: 27%

How did O=C(COc1ccc(Cl)cc1Cl)Nc1cccc2cccnc12 do in these assays?
StopGo FLuc: 10%&-10%; 2A Renilla: -7%&-13%

How did CCc1ccc(OCC(=O)Nc2ccc(S(=O)(=O)NC(C)(C)C)cc2)c(Br)c1 do in these assays?
StopGo FLuc: 34%[activator]; 2A Renilla: 35%[activator]

Results for Cc1ccc(-c2csc(Nc3ccc(S(N)(=O)=O)cc3)n2)cc1 ?
StopGo FLuc: 7%; 2A Renilla: -17%

What do the screens show for `Cc1ccc(S(=O)(=O)Nc2cc3c(C(=O)OCc4ccccc4)c(C)oc3c3ccccc23)cc1`?
StopGo FLuc: 9%; 2A Renilla: -7%

How did C/C(=N\NC(=O)C1CC1c1ccc(C(C)(C)C)cc1)c1ccc2c(c1)CCCC2 (stereo not given) do in these assays?
StopGo FLuc: 1%; 2A Renilla: -9%

Results for Cc1nc(-c2ccc(OC(F)(F)F)cc2)sc1C(=O)N1CCCC1 ?
StopGo FLuc: 105%[activator]; 2A Renilla: 8%

Results for COc1ccc(CCn2c3c(c(=O)[nH]c2=O)C(NC(=O)c2ccc(C(C)(C)C)cc2)(C(F)(F)F)C(=O)N3)cc1OC (stereo not given) ?
StopGo FLuc: 2%; 2A Renilla: -7%

What do the screens show for `CC(C)CCNC(=O)c1cc(Sc2ccc(F)cc2F)nc2ccccc12`?
StopGo FLuc: -25%; 2A Renilla: -15%

How did Cc1[nH]c2ccccc2c1/C=N/N=C(c1ccccc1)c1ccccc1 do in these assays?
StopGo FLuc: 15%; 2A Renilla: 19%

How did Cc1ccc(CNC(=O)c2cc(=O)c3ccc(C)c(C)c3o2)cc1 do in these assays?
StopGo FLuc: -3%; 2A Renilla: -5%

What do the screens show for `Cc1ccc(OCCCn2c(-c3ccc(Cl)cc3)nc3ccccc3c2=O)c(C)c1`?
StopGo FLuc: -4%; 2A Renilla: -9%

What do the screens show for `CC(=O)NC12CC3CC(C1)CC(C(=O)NCc1ccncc1)(C3)C2`?
StopGo FLuc: 2%; 2A Renilla: 5%

How did O=C(CSc1nc2cc(C(=O)NC3CCCC3)ccc2c(=O)n1CC1CCCO1)c1cccc(Cl)c1 (stereo not given) do in these assays?
StopGo FLuc: -9%; 2A Renilla: -7%

Results for N#CCOc1ccc2ccccc2c1 ?
StopGo FLuc: 13µM*; 2A Renilla: 1%

What do the screens show for `CCN1CCC(NC(=O)CCc2ncc(-c3ccc(F)cc3)o2)CC1`?
StopGo FLuc: 16%; 2A Renilla: -9%

Results for COc1ccc(SC(C)C(=O)NC(C)(C#N)C(C)C)cc1 (stereo not given) ?
StopGo FLuc: 7%; 2A Renilla: 6%

Results for COc1ccc(N2CCN(S(=O)(=O)c3c(C)nc4sc(C)cn4c3=O)CC2)cc1 ?
StopGo FLuc: -24%; 2A Renilla: -1%

What do the screens show for `CC(C)(C)C(=O)Nc1cccc(NC(=O)C2CCCCC2)c1`?
StopGo FLuc: -4%; 2A Renilla: 20%

Results for CC(c1ccccc1)N(C)C(=O)CSc1nc2ccccc2o1 (stereo not given) ?
StopGo FLuc: 69%[activator]; 2A Renilla: 47%[activator]

Results for CCN(CC)C(=O)Cn1c(=O)n(CCCCCC(=O)NCc2ccc(C)cc2)c(=O)c2sccc21 ?
StopGo FLuc: 9%; 2A Renilla: 5%

How did Cc1ccc(S(=O)(=O)c2nnn3c2nc(N2CCOCC2)c2sccc23)cc1C do in these assays?
StopGo FLuc: -24%; 2A Renilla: -7%

Results for O=S(=O)(c1cccc2nsnc12)N(Cc1ccc2c(c1)OCO2)C1CCCC1 ?
StopGo FLuc: 54%[activator]; 2A Renilla: 135%[activator]

What do the screens show for `COC(=O)C1(NC(=O)CSc2ccccc2F)CCCCC1`?
StopGo FLuc: -1%; 2A Renilla: 27%

Results for CCCCC(=O)Nc1ccc(OCc2cc(=O)n3c(C)csc3n2)cc1 ?
StopGo FLuc: 0%; 2A Renilla: -1%

Results for COC(=O)[C@]12C[C@H](CC(=O)NCc3ccc(C)o3)C(=O)N(Cc3ccc(Cl)cc3Cl)C1=C[C@H](C1CCCC1)O[C@@H]2C ?
StopGo FLuc: inconclusive; 2A Renilla: inconclusive

Results for Cc1cc(Oc2cccc(Cl)c2C#N)ccc1Cl ?
StopGo FLuc: 20%; 2A Renilla: 14%

How did COc1ccc(-n2nc(C(=O)NCCc3ccc(OC)c(OC)c3)c3c4ccccc4n(C)c3c2=O)cc1 do in these assays?
StopGo FLuc: -3%; 2A Renilla: -3%

What do the screens show for `O=S(=O)(Nc1cccc2cccnc12)c1cc(F)ccc1F`?
StopGo FLuc: inconclusive; 2A Renilla: inconclusive

What do the screens show for `O=C(Nc1cccc(C(F)(F)F)c1)c1c(Cl)cccc1Cl`?
StopGo FLuc: 0%; 2A Renilla: 12%

Results for CCOc1ccc(-n2c(SCC(=O)Nc3ccccc3OCC)nc3[nH]ncc3c2=O)cc1 ?
StopGo FLuc: -7%; 2A Renilla: -7%

How did COC(=O)NCc1cccc(Br)c1 do in these assays?
StopGo FLuc: 15%; 2A Renilla: 24%

How did Cc1cccc(C)c1NC(=O)Cn1c(=O)c2c(ncn2CC(C)C)n(Cc2ccccc2)c1=O do in these assays?
StopGo FLuc: -8%; 2A Renilla: -4%

Results for CCN(C)Cc1cccc(CNC(=O)Cc2cccc(C(F)(F)F)c2)c1 ?
StopGo FLuc: 8%; 2A Renilla: 6%

How did CCCn1nc(C(=O)NC(C)c2ccc(S(N)(=O)=O)cc2)c2ccccc2c1=O (stereo not given) do in these assays?
StopGo FLuc: 28%; 2A Renilla: 41%[activator]

What do the screens show for `COc1cccc2cc(C(=O)Nc3ccc(F)c(F)c3)c(=O)oc12`?
StopGo FLuc: -4%; 2A Renilla: 6%

Results for COC(=O)C1CN(C2CCCC2)CCS(=O)(=O)N1Cc1cn(Cc2ccc(C)cc2)nn1 (stereo not given) ?
StopGo FLuc: -12%; 2A Renilla: -26%

How did CC(C)n1nc(C(=O)NCCCN2CCCC2=O)c2ccccc2c1=O do in these assays?
StopGo FLuc: 5%; 2A Renilla: -6%

What do the screens show for `CCOc1ccc(CCNC(=O)c2cc3c(=O)n(C)c4ccccc4c3n2C)cc1`?
StopGo FLuc: 2%; 2A Renilla: -1%

What do the screens show for `CN(Cc1ccccc1F)S(=O)(=O)c1cn(C)c(=O)n(C)c1=O`?
StopGo FLuc: 9%; 2A Renilla: 16%

How did CCC(Cc1ccccc1)NC(=O)CN1C(=O)COc2ccc(S(=O)(=O)N3CCCCCC3)cc21 (stereo not given) do in these assays?
StopGo FLuc: -7%; 2A Renilla: -3%

Results for Cc1nc2cc(NC(=O)c3cccc(OC(F)F)c3)ccc2o1 ?
StopGo FLuc: 75%[activator]; 2A Renilla: -32%

How did Cn1c(=O)c2c(nc(Cl)n2Cc2ccc(-c3ccccc3)cc2)n(C)c1=O do in these assays?
StopGo FLuc: 0%; 2A Renilla: 14%

Results for Cc1nn(-c2ccccc2)c(C)c1CN(C)S(=O)(=O)c1ccc(F)cc1 ?
StopGo FLuc: -29%; 2A Renilla: inconclusive

Results for Clc1cccc(CSc2nc(CN3CCOCC3)nc3ccccc23)c1 ?
StopGo FLuc: -21%; 2A Renilla: -31%

Results for O=C(NN=C1CCCCC1)c1cc(-c2cccs2)nc2ccccc12 ?
StopGo FLuc: 43%[activator]; 2A Renilla: 45%[activator]

What do the screens show for `COc1ccc(CN2C/C(=C/c3ccc(C)cc3)N3C(=O)C[C@@H](c4ccccc4)N=C23)c(OC)c1`?
StopGo FLuc: -15%; 2A Renilla: -3%

What do the screens show for `COc1ccc(OC)c(CNS(=O)(=O)c2cc(-c3onc(C)c3C)ccc2C)c1`?
StopGo FLuc: -10%; 2A Renilla: 172%[activator]

What do the screens show for `Cc1ccc2[nH]c(C)c(C(O)CN3CCC(Cc4ccccc4)CC3)c2c1` (stereo not given)?
StopGo FLuc: -25%; 2A Renilla: -20%

What do the screens show for `N#Cc1cc2c(nc1SCC(=O)Nc1ccc(Cl)c(C(F)(F)F)c1)C1CCN2CC1`?
StopGo FLuc: inconclusive; 2A Renilla: inconclusive

Results for CC(=O)c1ccc(NC(=O)CCc2c(C)nc3c(c2C)c(=O)n(C)c(=O)n3C)cc1 ?
StopGo FLuc: 18%; 2A Renilla: -13%

What do the screens show for `O=C(NC1CCCCNC1=O)c1cc(=O)c2ccccc2o1` (stereo not given)?
StopGo FLuc: 63%[activator]; 2A Renilla: -13%

What do the screens show for `COCc1nnc(NC(=O)C2CC(=O)N(CCc3c[nH]c4ccc(C)cc34)C2)s1` (stereo not given)?
StopGo FLuc: 3%; 2A Renilla: -7%

Seven neighbouring compounds out of the list so far, for reference:
Results for CCN(C)Cc1cccc(CNC(=O)Cc2cccc(C(F)(F)F)c2)c1 ?
StopGo FLuc: 8%; 2A Renilla: 6%

How did CCCn1nc(C(=O)NC(C)c2ccc(S(N)(=O)=O)cc2)c2ccccc2c1=O (stereo not given) do in these assays?
StopGo FLuc: 28%; 2A Renilla: 41%[activator]

What do the screens show for `COc1cccc2cc(C(=O)Nc3ccc(F)c(F)c3)c(=O)oc12`?
StopGo FLuc: -4%; 2A Renilla: 6%

Results for COC(=O)C1CN(C2CCCC2)CCS(=O)(=O)N1Cc1cn(Cc2ccc(C)cc2)nn1 (stereo not given) ?
StopGo FLuc: -12%; 2A Renilla: -26%

How did CC(C)n1nc(C(=O)NCCCN2CCCC2=O)c2ccccc2c1=O do in these assays?
StopGo FLuc: 5%; 2A Renilla: -6%

What do the screens show for `CCOc1ccc(CCNC(=O)c2cc3c(=O)n(C)c4ccccc4c3n2C)cc1`?
StopGo FLuc: 2%; 2A Renilla: -1%

What do the screens show for `CN(Cc1ccccc1F)S(=O)(=O)c1cn(C)c(=O)n(C)c1=O`?
StopGo FLuc: 9%; 2A Renilla: 16%

The list goes on.
What do the screens show for `CN(Cc1ccccc1)C(=O)CSc1nnc(COc2ccc(Cl)cc2)n1C`?
StopGo FLuc: 11%; 2A Renilla: 39%[activator]

Results for COc1cc(NC(=O)C(CC(C)C)NS(=O)(=O)c2ccc3c(c2)CCN3C(C)=O)cc(OC)c1 (stereo not given) ?
StopGo FLuc: -4%; 2A Renilla: 25%

How did COc1ccc(Cl)c(NC(=O)c2sc3nc(-c4ccncc4)ccc3c2N)c1 do in these assays?
StopGo FLuc: 0%; 2A Renilla: -10%

What do the screens show for `COc1ccc(C(=O)/C=C/c2ccccc2F)cc1CSCC(=O)O`?
StopGo FLuc: 49%[activator]; 2A Renilla: 8%

How did O=C(COC(=O)c1cccc(NC(=O)c2ccc(Br)cc2)c1)c1ccc(Cl)cc1 do in these assays?
StopGo FLuc: 24%; 2A Renilla: -7%

How did CCCOc1ccc(C(N)=O)cc1 do in these assays?
StopGo FLuc: 0%; 2A Renilla: 7%

Results for c1ccc2c(CN3CCN(Cc4c[nH]c5ccccc45)CC3)c[nH]c2c1 ?
StopGo FLuc: -12%; 2A Renilla: -13%

How did CCOc1ccc(S(=O)(=O)N(CC(=O)NCCSc2ccccc2)c2ccccc2)cc1 do in these assays?
StopGo FLuc: -5%; 2A Renilla: -9%

How did COCCN(CCOC)c1ncnc2c1c(-c1ccccc1)cn2-c1ccc(C)c(Cl)c1 do in these assays?
StopGo FLuc: 2%&-23%; 2A Renilla: 3%&-5%

Results for CCOc1ccc2nc(N3CCCC(C(=O)NCCc4ccc(OC)c(OC)c4)C3)sc2c1 (stereo not given) ?
StopGo FLuc: 64%[activator]; 2A Renilla: -5%

Results for COc1ccccc1N1CCN(S(=O)(=O)c2ccc3c(c2)CCCN3C(C)=O)CC1 ?
StopGo FLuc: -14%; 2A Renilla: -17%

Results for Cc1ccc2c(C)c(CCC(=O)N(C)Cc3ccc4c(c3)OCO4)c(=O)oc2c1 ?
StopGo FLuc: 20%; 2A Renilla: 32%[activator]

How did Cc1ccc2oc(=O)n(CCNC(=O)Nc3ccc(C)c(F)c3)c2c1 do in these assays?
StopGo FLuc: 67%&-2%[activator]; 2A Renilla: 39%&9%[activator]

Results for CCOc1ccc(NC(=O)c2ccc3c(O)c(S(=O)(=O)c4ccc(Cl)cc4)c(=O)[nH]c3c2)cc1 ?
StopGo FLuc: 22%; 2A Renilla: -4%

Screening data from PubChem.
